# Rango-impB inh: prevents formation of the Rango-importin beta complex | Rango CFP/YFP FRET sensor + importin beta, 45 min | Potency, µM (series often up to 92.2 µM), without a hit: top-dose inhibition of complex formation | 0.031% of 340,000 active; active = rising FRET ratio curve, often small or poorly fitted; inconclusive = mostly compound fluorescence or quenching in the first reads; inactive = flat curves in all reads;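 note: potency is the fitted concentration of half-maximal effect; 0% = DMSO wells and 100% = buffer wells lacking importin beta; nearly all actives have a fitted effect of over 15% in size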
#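 FRET biosensor (snurportin 1 IBB flanked by EYFP and cerulean), 50 nM, with compound 5 min, then 0.125 microM importin beta in PBS, 1 mM DTT, 0.02% Tween-20, 0.1% BSA. CFP/YFP ratio read after 45 min at room temperature; pre-read flags interference.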
# GLA inh pH 4.5: alpha-galactosidase A (human) inhibition, pH 4.5; purified enzyme, 4-MU-alpha-Gal fluorescence, pH 4.5; 230,000 tested, under 10 active; AID 1467; activity change, negative = inhibition, % at 105 µM; P06280; inconclusive = small, poorly fitted or top-dose-only inhibition, or a rising curve; inactive = flat fitted curve, though single readings scatter; no compound was filed as active;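 note: 0% = full activity with enzyme and -100% = basal without enzyme; dose as in the result columns while the protocol names 77 µM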
# Target sequence (P06280 whole entry, looked up): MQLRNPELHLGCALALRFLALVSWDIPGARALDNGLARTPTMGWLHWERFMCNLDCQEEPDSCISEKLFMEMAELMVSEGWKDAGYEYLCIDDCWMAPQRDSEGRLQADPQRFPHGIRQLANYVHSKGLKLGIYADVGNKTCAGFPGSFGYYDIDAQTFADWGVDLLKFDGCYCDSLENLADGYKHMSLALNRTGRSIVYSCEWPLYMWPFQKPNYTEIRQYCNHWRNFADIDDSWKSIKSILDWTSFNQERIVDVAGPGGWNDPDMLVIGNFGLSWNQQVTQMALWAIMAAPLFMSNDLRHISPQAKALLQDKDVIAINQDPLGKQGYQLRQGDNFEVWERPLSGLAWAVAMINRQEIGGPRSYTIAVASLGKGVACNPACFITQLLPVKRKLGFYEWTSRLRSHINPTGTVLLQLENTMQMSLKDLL
# Rango dissoc inh: prevents RanGTP from dissociating the Rango-importin beta complex. O95149+P62826. Biochemical FRET Rango-importin beta, RanGTP-induced dissociation. Potency, µM (highest dose often 46.1 µM), without a hit: at the top dose activity change, negative = inhibition. 0.071% of 340,000 active; active means falling FRET ratio curve, often poorly fitted, with flat reads before Ran was added; inconclusive means other falling curves, or compound fluorescence or quenching; inactive means flat or rising ratio curve;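 note: potency is the fitted concentration of half-maximal effect; % of control where 0% means no effect; nearly all actives have a fitted effect of over 45% in size; -100% = wells without RanGTP and RCC1; the record marks most hits as doubtful in a second field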
#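 Rango/importin beta premix (0.1/0.25 uM final), PBS + 1 mM DTT + 0.02% Tween-20 + 0.1% BSA; cpd 5 min RT; FRET pre-read; + RanGTP-RCC1 (0.6 uM Ran, 2 mM GTP, 0.2 uM RCC1); 45 min RT; FRET post-read, ex 430, em 486/530 nm.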
# miR-21 FLuc: miR-21 reporter, rising signal; HeLa miR-21 FLuc reporter, luciferase, 48 h; Potency, µM (highest dose often 38.3 µM), inactives show at the highest dose reporter change, positive = more light; 340,000 tested, under 10 active; AID 2288; active = well fitted rising curve with a large enough effect; inconclusive = small, poorly fitted or top-dose-only effect; inactive = no such curve, though single readings can be large or run the other way;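 note: % of control where 0% means no effect; miR-21 action dims this reporter so a rising signal means less miR-21 action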
#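 Using DMEM plus 10% FBS, HeLa miR-21-FLuc cells are incubated with test compounds (final up to about 40uM) for 48 hours; firefly luciferase signal is then imaged following reagent-mediated lysis.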
# Active calls of the source: *; ? = inconclusive; . = not tested or not shown; & = joins results of further samples.
# Fields: Rango-impB inh	GLA inh pH 4.5	Rango dissoc inh	miR-21 FLuc
- CCCS(=O)(=O)N1CCN(Cc2ccc([N+](=O)[O-])cc2)CC1
→ -0.6%	6	-6%	-2%
- Cc1nn(Cc2ccccc2)c(Cl)c1/C=C/C(=O)OC(C)C(=O)N1CCCC1 (centres undefined)
→ -0.8%	11	0%	0%
- CC(=O)OCn1ncc(N2CCOCC2)c(Br)c1=O
→ -2.5%	.	-4%	-7%
- CN(C)c1ccc(/C=N/NC(=O)CN(c2cccc(Cl)c2)S(C)(=O)=O)cc1Br
→ -1.4%	-9	18%	6%
- CC(C)c1nc2sc3c(SCC(N)=O)ncnc3c2c2c1CCC2
→ -1.1%	0	-1%	-3%
- O=C(Nc1ccc(N2CCOCC2)cc1)C1CCN(S(=O)(=O)c2ccccc2F)CC1
→ 0.1%	0	41%	3%
- CCOc1ccc(OCCCCN2CCCC2)cc1
→ 0.5%	1	-16%	-1%
- OCCC1CN(Cc2cc(F)ccc2F)CCN1CCCc1ccccc1 (centres undefined)
→ 2.2%	.	-11%	9%
- NC(=O)CC(NC(=O)c1ccccc1)c1ccc(N2CCc3ccccc3C2)c([N+](=O)[O-])c1 (centres undefined)
→ -1.1%	.	7%	9%
- C=CCN1C(c2ccc(Br)cc2)=CS/C1=C(/C#N)c1nnc(N2CCOCC2)n1-c1ccccc1
→ -3.9%	-6	-1%	0%
- O=C(NCc1cccs1)C1CCCN1C(=O)Nc1ccc(F)cc1 (centres undefined)
→ -4.0%	2	?	-2%
- COC(=O)c1c(-c2ccncc2)csc1NC(=O)c1ccoc1C
→ -3.5%	4	-3%	-60%
- O=c1[nH][nH]c(=O)c2nc(Nc3ccccc3)ncc12
→ 2.6%	.	27%	.
- Cc1[nH]n2cnnc2c(=O)c1Br
→ -3.5%	6	-10%	0%
- Cc1cccc(C(=O)Nc2ccc(C(=O)N/N=C/c3ccc(C)o3)cc2)c1
→ -1.8%	.	0%	10%
- Cc1cccc(C)c1OCC(=O)N/N=C/c1ccc2c(c1)OCO2
→ -1.6%	2	-8%	1%
- O=S(=O)(NC1CCCCC1)c1ccc(Br)s1
→ 3.4%	.	29%	-4%
- C=CCn1c(COc2ccccc2)nnc1SCC(=O)Nc1ccc2c(c1)OCCO2
→ 4.6%	-2	-10%	0%
- Cc1cn(C2CCCCC2)c(=O)n(-c2ccccc2)c1=O
→ ?	.	-2%	.
- COc1ccc(S(=O)(=O)N2CCOCC2)cc1NC(=O)CN1C(=O)CN(C)C1=O
→ 3.0%	.	-1%	.
- O=C(NCCCn1cccn1)c1cc(COc2ccc(F)cc2Cl)on1
→ 0.4%	1	8%	-27%
- O=c1c(-c2ccccc2)cnc2n1CCS2
→ 0.1%	7	-13%	-11%
- Cc1cc(C)nc(NS(=O)(=O)c2ccc(N/C=C/C(=O)c3ccc(Cl)c(Cl)c3)cc2)n1
→ ?	-8	-18%	-7%
- COc1ccc(CN(CCC(c2ccccc2)C2CCOC(C)(C)C2)C(C)=O)cc1 (centres undefined)
→ 0.6%	-6	10%	12%
- O=C1C=C(c2ccc3ncccc3c2)C[C@@H](c2ccc(Cl)cc2)C1
→ -1.7%	.	-7%	.
- CCOC(=O)c1cnn(-c2cc(C)nc3c(-c4ccc(Cl)cc4)c(C)nn23)c1N
→ .	-6	.	0%
- Cc1ccccc1NS(=O)(=O)c1nnc(NC(=O)CC(C)C)s1
→ -0.4%	.	9%	1%
- Cc1nn(-c2ccc([N+](=O)[O-])cc2)c2c1C(c1cccc(Br)c1)N1C(=N2)C(=O)Nc2ccccc21 (centres undefined)
→ -3.7%	-2	-25%	5%
- CCOC(=O)C1CSC2(CCC(c3ccccc3)CC2)N1 (centres undefined)
→ 3.7%	-1	-15%	0%
- Fc1ccccc1N=C1NN=C(c2ccccc2)CS1
→ 1.8%	-6	-5%	17%
- O=C(O)CCCC(=O)Nc1ccc(Oc2ncnc3cc(Cl)ccc23)nc1
→ -0.3%	-8	3%	-1%
- CCOc1ccc(S(=O)(=O)c2c[nH]c3ccc(C)cc3c2=O)cc1
→ 4.4%	.	-8%	1%
- Cc1ccc(CN2CCN(Cc3cccn3-c3nccs3)CC2CCO)cc1 (centres undefined)
→ -4.5%	-15	-3%	-2%
- CCNC(=S)NNc1ccccc1
→ 2.1%	-6	3%	-5%
- CC(NC(=O)c1ccco1)c1nc(-c2ccc(Cl)cc2)no1 (centres undefined)
→ 1.3%	.	-9%	19%
- Cc1ccccc1NC(=O)CN1CCN(Cc2ccccc2)CC1
→ 1.0%	.	-12%	-4%
- O=C(NCc1ccccc1)c1ccc(Br)cc1
→ 1.9%	-2	0%	-14%
- Cc1ccc(Nc2ccc(C(=O)NC3CCCCC3)cn2)cc1
→ -2.2%	-7	6%	-28%
- CCOC(=O)c1c(CN(C)C)n(C)c2c(O)c(N=NC(N)=O)c3ccc(Br)cc3c12
→ 1.7%	.	-2%	-3%
- CC1(C)C2CCC1(C)C(OC(=O)CNc1ccccc1)C2 (centres undefined)
→ 3.7%	-2	0%	-6%
- Oc1ccc(Cl)cc1-c1cc(-c2ccccc2)n[nH]1
→ 1.2%	-9	-8%	-3%
- CC(=O)Oc1ccc2c(=O)oc(-c3ccc([N+](=O)[O-])cc3)nc2c1
→ 3.4%	.	-11%	-5%
- NS(=O)(=O)c1ccc(NC(=S)N2CCC(O)CC2)cc1
→ 0.8%	-1	20%	-1%
- CCC(=O)Nc1nc2ccccc2n1CCN(CC)CC
→ 2.9%	2	3%	-6%
- Cc1ccc(S(=O)(=O)N2CCOCC2)cc1NC(=O)COC(=O)/C=C/c1ccco1
→ 0.1%	.	5%	.
- CCOc1ccc(NC(=O)CN(C)C(=O)CC2CCCC2)cc1OCC
→ -3.9%	.	7%	.
- COC(=O)c1cn(CC(=O)NCc2ccco2)c2ccccc12
→ -2.6%	-3	-6%	-36%
- Cn1c(=O)c(C(=O)Nc2ncccc2O)c(O)c2ccccc21
→ -0.5%	10	-13%	-37%
- Cc1nc(N2CCOCC2)[nH]c(=O)c1CCC(C)C
→ 2.1%	1	1%	0%
- CCOc1cc(N2CCOCC2)c(OCC)cc1NC(=O)COC(=O)c1ccccc1OC(F)F
→ 0.1%	.	1%	.
- CCOC(=O)Nc1cc(C(=O)OCC)c(C)nc1C
→ -0.1%	-3	1%	-1%
- COC(=O)c1cc2ccccc2c(=O)s1
→ 0.5%	6	-12%	-10%
- COCCCNC(=O)Cn1ccc(NC(=O)OCc2ccccc2)nc1=O
→ -1.6%	.	-8%	.
- COc1cc(Cl)cc(C=O)c1OCC(=O)O
→ 0.3%	-7	1%	3%
- CN(C)CCCN(C(=O)c1cc2ccccc2oc1=O)c1nc2c(F)cccc2s1
→ -0.1%	-1	0%	-24%
- O=C(c1ccccc1C(=O)N1CCN(c2ccc(F)cc2)CC1)N1CCN(c2ccc(F)cc2)CC1
→ 1.3%	-4	10%	29%
- COc1ccccc1C(=O)NCCC(=O)OCC(=O)Nc1ccc(S(N)(=O)=O)cc1
→ -18%	.	19%	.
- C#CCNC(=O)c1ccc(OCc2ccccc2)cc1Cl
→ 1.4%	-1	-6%	-38%
- COc1ccc(/C=N\NC(=O)c2ccc([N+](=O)[O-])c(C)c2)cc1COc1ccccc1C(N)=O
→ -0.1%	.	-5%	9%
- Cc1cccc(C)c1NC(=O)Cn1c(=O)n(CCCC(=O)NC2CCN(Cc3ccccc3)CC2)c(=O)c2ccccc21
→ 0.7%	.	6%	0%

# Other results follow:
# Fields: Rango-impB inh	GLA inh pH 4.5	Rango dissoc inh	miR-21 FLuc
- O=C(CN1C(=O)NC2(CCCC2)C1=O)Nc1ccc(C(F)(F)F)cc1
→ 0.6%	.	-8%	-9%
- NS(=O)(=O)c1ccc(Nc2ccccc2)c([N+](=O)[O-])c1
→ 1.4%	-6	-6%	-16%
- O=C(O)C1C2CCC(O2)C1C(=O)Nc1ccc(Cl)cc1F (centres undefined)
→ -0.8%	.	-2%	-10%
- CN(C(=O)CSC1=NC2C(N=N1)c1cc(Br)ccc1N2C)C1CCCCC1 (centres undefined)
→ 2.8%	1	1%	-1%
- Cc1noc(C)c1CCC(=O)N1CCCC(CCC(=O)NCc2ccccc2F)C1 (centres undefined)
→ 1.9%	4	0%	2%
- COC(=O)[C@@]1(Cc2ccc(F)cc2)[C@H]2c3cc(C(=O)N(C)C)n(Cc4ccccc4)c3C[C@H]2CN1C(=O)c1ccccc1
→ 2.7%	-4&-11	-19%	23%
- Fc1ccccc1Sc1ccccc1CNC1=NCCN1
→ 1.6%	8	1%	13%
- CC(C)CC(=O)Nc1ccc2oc(-c3ccncc3)nc2c1
→ 1.7%	3	39%	-49%
- N/C(=N\OC(=O)c1ccc(Cl)c(Cl)c1)c1ccccn1
→ 2.7%	8	13%	0%
- O=C(OCC(=O)N1CCN(C(=O)c2ccco2)CC1)c1ccccc1C(=O)c1ccccc1
→ -2.7%	1	7%	-7%
- CC(C)(C)c1ccc(NC(=O)N2CCCN(c3c(Cl)cncc3Cl)CC2)cc1
→ -3.8%	-10	10%	-2%
- CC(C(=O)Nc1cc([N+](=O)[O-])ccc1Cl)N1CCN(c2ccccc2)CC1 (centres undefined)
→ -2.0%	8	11%	-2%
- Cc1ccc(S(=O)(=O)Nc2ccc(S(=O)(=O)NC(C)(C)C)cc2)cc1
→ 0.6%	-3	1%	1%
- Cc1cccc(NC(=O)C2CCCN(S(=O)(=O)c3ccc4[nH]c(=O)ccc4c3)C2)c1 (centres undefined)
→ -3.7%	.	-11%	-5%
- CCOC(=O)CSc1ncc(OC)c(=O)[nH]1
→ 0.1%	3	-9%	-1%
- CS(=O)(=O)N(Cc1ccccc1)c1ccc(C(=O)NCc2ccccc2)cc1
→ -6.0%	-19	24%	1%
- Nc1nc2c(ccc3ccccc32)s1
→ 0.2%	.	0%	.
- CCOc1ccc(NC(=O)Cn2sc3nc(C)cc(C)c3c2=O)cc1
→ ?	0	1%	2%
- COc1ccc(-n2nc(C(=O)N3CCCCC3)c3ccccc3c2=O)cc1
→ -0.9%	0	16%	-3%
- N#CCCn1cc(C(CC(=O)c2ccccc2)C(=O)O)c2ccccc21 (centres undefined)
→ -0.3%	4	-6%	-26%
- COc1cccc(OC)c1C(=O)Nc1ccnn1C
→ 2.5%	.	-8%	-1%
- Cc1ncc([N+](=O)[O-])n1CC(=O)NCCc1ccccc1
→ -0.4%	0	7%	0%
- COc1ccc(-c2noc(CCCOc3ccc(Cl)cc3Cl)n2)cc1
→ 5.9%	4	-14%	-9%
- CC(C)c1ccc(C2C(C(=O)c3ccco3)=C(O)C(=O)N2CC2CCCO2)cc1 (centres undefined)
→ -0.1%	.	7%	-2%
- COc1ccc(OC)c(NC(=O)c2cnc(Nc3ccccc3OC)c3ccccc23)c1
→ ?	-2	?	15%
- COc1cc(OC)c(Nc2cc(C)nc3nc(C)nn23)cc1Cl
→ -0.4%	1	1%	-8%
- Cc1[nH]n(-c2ccccc2)c(=O)c1/C=N/NC(=O)C(C)C
→ -2.3%	0	-10%	15%

# Fetched by compound from the entries so far, 7 records:
# Fields: Rango-impB inh	GLA inh pH 4.5	Rango dissoc inh	miR-21 FLuc
- COc1cc(OC)c(Nc2cc(C)nc3nc(C)nn23)cc1Cl
→ -0.4%	1	1%	-8%
- CCOc1ccc(NC(=O)Cn2sc3nc(C)cc(C)c3c2=O)cc1
→ ?	0	1%	2%
- COc1ccc(-c2noc(CCCOc3ccc(Cl)cc3Cl)n2)cc1
→ 5.9%	4	-14%	-9%
- Cc1[nH]n(-c2ccccc2)c(=O)c1/C=N/NC(=O)C(C)C
→ -2.3%	0	-10%	15%
- COc1ccc(OC)c(NC(=O)c2cnc(Nc3ccccc3OC)c3ccccc23)c1
→ ?	-2	?	15%
- COc1cccc(OC)c1C(=O)Nc1ccnn1C
→ 2.5%	.	-8%	-1%
- Cc1ncc([N+](=O)[O-])n1CC(=O)NCCc1ccccc1
→ -0.4%	0	7%	0%

# Screening data deposited in PubChem BioAssay by National Center for Advancing Translational Sciences (NCATS).

# Only part of the results is shown. The share of hits here may be higher or lower than overall.
